FGF22 binding = binders of recombinant human FGF22 by thermal shift; SYPRO orange fluorescence; percent of sucrose octasulfate shift, DMSO zero; calls only at 9.99 µM; 340,000 tested, 1.5% active; Q9HCT0;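 active = melting point raised past a set limit in the mean and every replicate; inconclusive = no clear call; three in four hits are not shown here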
Target sequence (Q9HCT0 whole entry, looked up): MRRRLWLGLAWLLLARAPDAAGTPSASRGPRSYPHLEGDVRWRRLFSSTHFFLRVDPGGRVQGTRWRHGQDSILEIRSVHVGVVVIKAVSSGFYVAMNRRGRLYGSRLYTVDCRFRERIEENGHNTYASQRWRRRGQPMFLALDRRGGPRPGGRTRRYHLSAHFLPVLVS
E coli growth = E. coli growth inhibition; 330,000 tested, 0.21% active; OD600 absorbance (concentration not given with the values); Escherichia coli growth, OD600, 23 h; stronger effect = lower value; AID 1053175;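 active = OD600 absorbance below the run mean of sample wells minus 3.6 SD, in any replicate, cut at about 0.56 in these data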;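 also: stock transfer was 300 nL into about 60 µL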
ALR H2O2 inh = blocks human ALR sulfhydryl oxidase activity; AID 485317; inhibition, % (no concentration beside the values); purified ALR, DTT oxidation, H2O2 HRP-luminol luminescence; P55789; 290,000 tested, 3.8% active;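 active = mean and each replicate at 75% or more; inconclusive = only one of the two met; inactive = neither met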;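 also: stock transfer was 7.5 nL into about 7.5 µL; 0% = neutral wells and 100% = wells with inactivated enzyme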
Target sequence (P55789 whole entry, looked up): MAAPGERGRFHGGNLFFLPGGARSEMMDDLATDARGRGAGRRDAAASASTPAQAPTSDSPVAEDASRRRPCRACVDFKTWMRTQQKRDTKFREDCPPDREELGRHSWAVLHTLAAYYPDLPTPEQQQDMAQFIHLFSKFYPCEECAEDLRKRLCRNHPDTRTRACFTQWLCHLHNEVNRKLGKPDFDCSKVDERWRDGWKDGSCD
UCH37 DUB inh = blocks the human deubiquitinase UCH37; 330,000 tested, 0.33% active; AID 588478; Q9Y5K5; inhibition, % (no concentration beside the values); purified proteasome/UCH37, Ub-AMC cleavage fluorescence;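 active = mean of two replicates above 20%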;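 also: 0% = compound-free wells with enzyme and 100% = wells lacking proteasome; stock transfer was 100 nL into about 20 µL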
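Signal – fluorescence, ex 355 nm, em 460 nm · System – Proteasome-bound UCH37 · Input – 0.15 nM proteasome as dispensed · Timing – 30 min preincubation with enzyme, 25 min cleavage at room temperature · Read-out basis – percent inhibition of cleavage signal versus uninhibited and no-proteasome wells · Medium – Tris-HCl pH 7.4 with ATP-MgCl2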
HNF4A DNA FP = change in binding of human HNF4 alpha to DNA | P41235 | HNF4a-FITC DNA binding, fluorescence polarization, 1 h | activity change, % at 10 µM | 360,000 tested, 0.3% active; in the data active = activity change above about 30%, passing the limit was not always enough;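 also: controls were the assay level and a saturating level of protein; the project sought stronger binding though the title names inhibitors; some compounds called inactive have numbers as strong as hits; positive values seem to mean higher polarization but the record does not say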
Target sequence (P41235 whole entry, looked up): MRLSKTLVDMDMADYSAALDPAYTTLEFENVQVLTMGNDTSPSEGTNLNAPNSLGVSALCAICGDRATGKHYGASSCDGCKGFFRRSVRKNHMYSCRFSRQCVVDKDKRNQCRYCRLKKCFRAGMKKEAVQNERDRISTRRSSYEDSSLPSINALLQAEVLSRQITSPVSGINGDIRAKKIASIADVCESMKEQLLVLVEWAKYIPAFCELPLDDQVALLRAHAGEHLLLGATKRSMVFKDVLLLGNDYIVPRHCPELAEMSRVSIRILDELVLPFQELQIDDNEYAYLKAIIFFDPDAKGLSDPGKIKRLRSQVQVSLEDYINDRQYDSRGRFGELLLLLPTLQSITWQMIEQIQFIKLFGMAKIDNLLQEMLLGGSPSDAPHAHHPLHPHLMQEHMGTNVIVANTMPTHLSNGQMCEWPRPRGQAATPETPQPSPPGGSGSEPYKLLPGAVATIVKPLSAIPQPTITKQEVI
B2AR ag = human beta-2 adrenergic receptor agonism by FAP. Am2.2-beta2AR cells, FAP receptor internalization, flow cytometry; reference of the scale not given here. AID 504454. response, % (concentration not given with the values). 340,000 tested, 0.43% active;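 active = response above a set limit, near 3 SD of response in nonfluorescent compounds, cut at about 42% in these data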;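 also: stock transfer was 100 nL into about 11 µL; a reference agonist was the positive control; negative values mostly stem from fluorescent compounds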
Ecoli rRNA inh = inhibitors of bacterial rRNA selective over humanized ribosomes; E. coli WT GFP vs humanized-ribosome RFP mutants, fluorescence, 24 h; stronger effect = lower value; DMSO median 0, no signal -100; GFP signal change (wild-type ribosome), % (test concentration not listed); 350,000 tested, 1.6% active; AID 720706;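 active = significant combined selectivity score with lowered wild-type GFP, culture density cut under 30%, mutant RFP and density less affected; inactive = any of these conditions unmet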; also: one replicate is shown; some compounds called inactive have numbers as strong as hits
Ecoli rRNA inh OD600 = second read-out of Ecoli rRNA inh, no call of its own (marks repeat the call); OD600 change, %; measured here: OD600 growth;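 optical density of the mix in the first replicate; 0 = DMSO median and -100 = no signal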
Ecoli rRNA inh RFP = further read-out of Ecoli rRNA inh, marked with its call; RFP signal change, %; measured here: RFP humanized mutant strains;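 first replicate; 0 = DMSO median and -100 = no signal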
* hit, by the source's call; i = inactive; u = inconclusive; x = no result given; + = active, no number; & = joins results of further samples.

Order of results – FGF22 binding	E coli growth	ALR H2O2 inh	UCH37 DUB inh	HNF4A DNA FP	B2AR ag	Ecoli rRNA inh	Ecoli rRNA inh OD600	Ecoli rRNA inh RFP
C/C(Cl)=C\CSc1nnc2n(N)c(=O)c3ccccc3n12
 : x	0.714	-8.1	2.6	0.8	-12.3	-7.1	7.4	-7.2
O=C(/C=C/c1ccco1)Nc1cccc2cccnc12
 : i	0.681	-18.7	7.9	-33.3	-6.5	6.1	-1.9	3.2
C/C(CC1CC(COCC(C)C)OC1=O)=N\Nc1nc(-c2ccccc2)cs1 (stereo not drawn)
 : x	x	97.7*	x	2.5	18.9	x	x	x
CCN1CCN(Cc2ccc(NC(=O)c3ccc(C)c(NC(=O)N4CCNC4=O)c3)cc2C(F)(F)F)CC1
 : i	0.676&0.668	-7.9&-2.7	0.1&5.0	-1.3&1.9&-2.1	12.6&20.8	-7.9&-9.5	-9.5&-0.8	5.7&2.6
CC/C(=N\NC(=O)c1ccccc1Cl)c1ccc(Br)s1
 : i	x	-3.9	x	-1.0	-2.5	-9.7	-15.6	-7.5
CCOC(=O)c1ccc(NS(=O)(=O)c2c(C)[nH]c(C)c2C(=O)N2CCCCC2)cc1
 : i	0.708	1.0	4.3	2.5	-2.4	-0.3	-7.2	-3.3
COc1ccc2ccccc2c1/C=N/NC(=O)c1cccc(C)c1
 : i	x	-44.8	x	-0.2	-2.3	3.0	3.6	0.5
COc1cc(C2SCC(=O)N2Cc2ccccc2)ccc1O (stereo not drawn)
 : i	0.664	x	3.8	1.4	-3.1	0.5	-1.7	0.9
CCCOP(=O)(c1ccc(N(C)C)cc1)C(Nc1ccccc1)c1ccc(N(C)C)cc1 (stereo not drawn)
 : i	0.703	-6.7	-0.4	2.6	0.2	x	x	x
O=C(CSCc1c(Cl)cccc1Cl)N1CCOCC1
 : i	0.675	23.3	2.8	-0.9	3.6	11.3	-2.4	-4.2
Cc1ccc(-c2ccnc3nc(Sc4ncc(C(F)(F)F)cc4Cl)nn23)cc1
 : x	0.735	2.9	-19.1	-2.0	0.0	x	x	x
O=[N+]([O-])c1cc2c(cc1CN1CCN(CCOCCO)CC1)OCO2
 : i	0.633	-17.5	4.5	0.9	-1.3	8.4	9.5	0.5
CCCCNC(=O)c1nc(C2CCN(S(=O)(=O)c3ccc(F)c(F)c3)CC2)oc1-c1ccccc1
 : i	x	x	x	-0.8	x	22.7	19.8	-3.4
O=C(OCc1cn([C@H]2CN(CC3CCCCC3)[C@@H](c3ccc(Cl)cc3)C[C@@H]2O)nn1)c1ccccc1
 : i	x	x	x	-0.7	x	16.9	7.6	1.3
O=C(NCCCn1ccnc1)c1nn2c(C(F)(F)F)cc(-c3ccc(Br)cc3)nc2c1Cl
 : i	0.654	x	3.7	1.9	10.5	-11.2	-3.5	-2.1
COc1ccc(Br)c(C(=O)OCC(=O)NC(=O)NC2CCCC2)c1
 : i	0.709	8.5	2.1	-0.9	-3.3	x	x	x
CCOC(=O)c1c(C)[nH]c(C)c1C(=O)CSc1nnc(-c2ccncc2)n1Cc1ccccc1
 : x	0.731	-7.8	-1.0	2.1	0.5	x	x	x
CSc1nc(-c2ccc(Cl)cc2)c(C#N)c(=O)[nH]1
 : x	0.695	u	-2.0	0.5	-2.2	-19.6	-23.1	2.8
O=C(N/N=C/c1c(O)ccc2ccccc12)c1[nH]ncc1Br
 : +	x	-28.7	x	22.9	-6.6	-31.6	-60.1	-14.0
Cc1ccc(C(=O)N2CCN(C/C=C/c3ccccc3)CC2)cc1S(=O)(=O)N1CCOCC1
 : i	0.679	x	0.8	1.5	8.1	0.7	-5.6	5.8
Cc1nc(C(N)=O)nc2ccccc12
 : i	0.804	-20.5	-0.6	1.5	-5.8	5.2	16.1	-6.4
Cc1nn(-c2ccccc2)nc1C(N)=O
 : i	0.661	x	1.9	3.0	1.8	4.2	2.9	3.5
O=C(Nc1ccccc1)c1cc(C2COCCN2C(=O)C2CC2)on1 (stereo not drawn)
 : i	x	x	x	-0.7	x	8.3	16.5	-1.3
Cc1ccc2oc(C(=O)NCc3ccc(S(N)(=O)=O)cc3)cc(=O)c2c1
 : i	0.682	-1.6	-0.3	0.6	-4.6	7.2	15.8	-1.1
COc1cc(S(=O)(=O)Nc2cccnc2)ccc1F
 : x	0.701	-11.4	-0.6	-2.8	-2.3	x	x	x
Cc1cc(C(=O)NCc2ccco2)sc1C
 : i	0.7	x	1.5	-0.7	-1.8	1.3	2.9	-2.0
NC(=O)c1cc(-c2ccccc2)sc1NC(=O)Cc1ccc(S(=O)(=O)N2CCOCC2)s1
 : x	0.722	x	-5.6	5.2	29.7	x	x	x
CCOC(=O)c1c(NC(=O)CSc2nnc(-c3ccccc3)o2)sc(C(C)=O)c1C
 : x	0.766	-3.7	6.7	15.7	-6.5	-12.2	-4.1	14.6
CC(C)C(OC(=O)CN1C(=O)c2ccccc2C1=O)C(=O)NC1CCCCC1 (stereo not drawn)
 : i	0.623	-2.0	2.6	-1.5	10.2	3.2	10.3	-2.2
CC(NC(=O)C1CCC(CNC(=O)[C@@H]2Cc3ccccc3CN2)CC1)c1ccccc1 (stereo partly drawn)
 : i	0.67	-5.2	2.8	3.2	-4.0	5.5	13.3	0.8
Cc1ccc(C2CC(=O)C=C(NCC(C)C)C2)cc1 (stereo not drawn)
 : i	0.686	19.6	5.3	1.5	-0.6	4.8	-4.5	-4.1
Cc1ccc(NC(=O)/C(Cl)=C\c2ccccc2)cc1
 : i	0.759	-9.7	2.1	-2.8	-9.4	2.4	-8.9	-1.8
Nc1ccc(NC(=O)c2cccs2)cc1
 : i	0.677	98.4*	1.0	-0.2	0.7	-10.9	0.5	-3.0
O=C(NCc1ccccc1)c1cccc(COc2ccccc2Cl)c1
 : x	0.706	-2.4	1.4	1.8	17.9	x	x	x
Cc1cccc2cc3c(NC(=O)c4ccccn4)nn(C)c3nc12
 : x	0.705	-11.4	x	2.8	4.0	x	x	x
CCc1ccc(NC(=O)C2CCN(S(=O)(=O)c3ccc4c(c3)NC(=O)C(C)S4)CC2)cc1 (stereo not drawn)
 : i	0.712	-4.9	3.3	18.2	-0.2	-27.1	-26.8	0.8
CCOC(=O)C(=CNc1ccc(OC)cc1[N+](=O)[O-])C(=O)OCC
 : i	0.684	x	6.1	-0.4	-16.6	3.8	8.0	-2.7
CCOC(=O)c1nn(-c2ccccc2)c(=O)c(C#N)c1C
 : x	0.722	-12.7	-3.0	0.6	1.3	12.2	7.5	-7.1
CN1CCCN(C(=O)c2c(F)cccc2Cl)CC1
 : i	0.707	-2.5	-0.3	0.4	8.8	4.7	6.4	1.3
Fc1ccc(N2CCN(c3nc(-c4ccco4)cc(C(F)(F)F)n3)CC2)cc1
 : x	0.731	-5.2	2.0	-2.6	-1.9	x	x	x
O=S(=O)(c1ccc2c(c1)CCCN2)N1CCCCC1
 : i	0.709	8.5	3.8	-1.7	-3.0	-0.5	-5.1	-1.2
COc1ccc(OC)c(/C=C/c2[nH]c(=O)[nH]c(=O)c2[N+](=O)[O-])c1
 : i	0.666	x	14.7	2.1	8.2	-15.0	-12.1	-2.4
CCN(C[C@H]1N[C@@](CC)(C(=O)OC)[C@H]2C(=O)N(C)C(=O)[C@@H]12)C(=O)c1ccc(F)cc1
 : i	0.664	x	1.3	3.9	-5.0	22.2	8.0	6.3
CC(=O)c1ccc(NC(=O)CN2c3cccc4cccc(c34)S2(=O)=O)cc1
 : i	0.717	-18.6	-61.2	-0.7	1.4	-21.5	-3.7	10.3
CONC(=O)c1cc(OCC(F)(F)F)ccc1OCC(F)(F)F
 : x	0.673	-25.4	0.0	-3.2	2.2	x	x	x
CC(=O)c1ccc(N2CCN(C(=O)C3CCC3)CC2)cc1
 : x	0.673	x	4.4	4.3	0.5	x	x	x
Cc1cn([C@H]2C[C@H](O)[C@@H](/C=C/C(=O)NCc3ccc(N(C)C)cc3)O2)c(=O)[nH]c1=O
 : i	x	x	x	-0.6	x	8.0	2.8	-0.5
Cc1cccc(OCCCC(=O)NCCc2ccccc2)c1
 : i	0.729	-58.9	4.8	-0.9	-6.7	5.8	10.5	3.9
COc1ccc(C(C[N+](=O)[O-])c2c(C)[nH]c3ccccc23)cc1OC (stereo not drawn)
 : x	0.713	-17.4	6.1	1.3	-1.7	x	x	x
CCOC(=O)C(C)n1cnc2sc3c(c2c1=O)CCC3 (stereo not drawn)
 : x	0.706	-3.6	-0.6	1.5	-0.7	x	x	x
CCNc1nn2ccccc2c1/C=C(\C#N)C(=O)OCC
 : i	0.667	-0.5	5.3	-2.7	-11.6	-2.1	-4.2	-1.4
O=C(Nc1cc(C(=O)N2CCOCC2)ccc1N1CCCC1)c1cccs1
 : i	0.657	7.8	6.9	4.7	-5.9	15.2	-9.4	3.6
COc1cccc(Nc2nc(C(N)Cc3ccccc3)cs2)n1 (stereo not drawn)
 : i	x	x	x	6.0	x	-56.5	-70.0	-17.1
Cc1ccccc1C(=O)N1CCC(C(=O)Nc2cccc(S(=O)(=O)N3CCCCC3)c2)CC1
 : i	0.701	-4.5	4.4	1.2	9.2	-9.2	-10.8	2.4
CC/C(=N/NC(=O)c1ccc(Br)cc1)c1ccc(OCCN2CCOCC2)cc1
 : i	x	-0.8	x	1.7	-2.7	19.1	4.2	3.1
Cc1ccc(NC(=O)c2nccnc2C(=O)O)cc1C
 : i	0.709	-13.3	6.2	-0.5	2.0	8.7	17.6	-1.3
CCC(=O)NCc1csc(-c2cccs2)n1
 : i	0.651	94.2*	-9.1	-2.1	2.8	14.7	17.7	-0.6
CCCCNC(=O)c1cc(-c2ccc(F)cc2)on1
 : x	0.691	-0.2	5.8	-0.9	2.7	x	x	x
C1CCC(NC2=NCCO2)CC1
 : i	x	x	x	-1.0	x	12.1	5.6	1.0
C=CCn1c(=O)/c(=C/c2ccc(Cl)cc2)s/c1=C(\C#N)c1nnc2n1CCCCC2
 : i	0.681	x	9.6	3.0	4.7	x	x	x

The list continues.
Order of results – FGF22 binding	E coli growth	ALR H2O2 inh	UCH37 DUB inh	HNF4A DNA FP	B2AR ag	Ecoli rRNA inh	Ecoli rRNA inh OD600	Ecoli rRNA inh RFP
CN(C)S(=O)(=O)c1ccc2c(c1)/C(=C/c1cc3c([nH]1)CCCC3)C(=O)N2
 : i	x	-4.3	-0.9	96.3	-314.8	15.0	6.0	8.3
CC(=O)N(CCS(=O)(=O)c1ccc(Cl)cc1)Cc1cccs1
 : i	0.694	6.1	1.2	-2.5	0.2	-9.2	-1.2	-0.6
O=C(COc1ccccc1F)NNC(=O)c1ccc(N2CCCCC2)c([N+](=O)[O-])c1
 : x	0.605	-3.3	4.2	1.9	-6.3	x	x	x
Cc1ccc(S(=O)(=O)CCC(=O)OCC(=O)Nc2cc(F)ccc2C)cc1
 : i	0.685	19.4	2.5	-2.1	9.5	3.6	8.5	-1.3
CCOC(=O)C(=CNc1cccc(C)c1C)C(=O)OCC
 : i	0.649	-2.1	3.8	4.4	-23.1	-5.8	-2.4	4.4
NCC12CC3CC(C1)CC(c1ccc(Br)cc1)(C3)C2
 : i	0.542	-17.9	7.5	3.9	28.9	-65.4	-81.8	-21.4
CC1CC(C)CN(c2ncnc3c2cnn3C)C1 (stereo not drawn)
 : i	0.708	-7.0	1.1	3.1	10.2	-4.4	-5.9	-0.7
CCS(=O)(=O)NCc1cn2ccsc2n1
 : x	0.739	-3.8	6.4	-0.8	-9.1	x	x	x

Not all compounds are listed; rates above refer to the full screens.
